Screening results: PubChem, several laboratories
VCAM-1 imaging – suppression of endothelial VCAM-1 upregulation – imaging, high-content imaging, pooled HUVEC, TNFa stimulus (AID 456) | HUVEC TNFa-induced VCAM-1 surface expression, immunofluorescence imaging; numbers were filed only for top-ranked candidate wells | inhibition, % at 5 µM; hits with a dose series show IC50 in µM | 10,000 compounds, 0.2% hits;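 active = top tenth filtered wells with inhibition above zero that passed visual or statistical confirmation; inactive = the rest, including hits rejected on review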;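 also: 0% = stimulated vehicle wells and 100% = unstimulated cells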
VCAM-1 down – inhibitors of TNFa-induced VCAM-1 surface display, cell-based, plate reader, pooled HUVEC, TNFa stimulus (AID 454); HUVEC TNFa-induced VCAM-1 surface immunofluorescence, plate reader; numbers were filed only for top-ranked candidate wells; inhibition, % at 5 µM; 10,000 compounds, 0.2% hits;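 active = compound among top-ranked inhibitors of TNF-induced VCAM-1 adhesion protein staining, with the hit upheld by image or statistical review; inactive = the rest, including hits rejected on review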;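 also: 0% = TNFa with vehicle and 100% = cells without TNFa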
VCAM-1 augmentation – enhancers of VCAM-1 display on endothelial cells, imaging, high-content imaging, pooled HUVEC, TNFa stimulus (AID 457). Pooled HUVEC, TNFa-induced VCAM-1 immunofluorescence imaging; hits of this screen are not shown here. calls only. 10,000 compounds, 0.2% hits;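 active = a top-ranked rise in VCAM-1 staining upheld on image or statistical review; inactive = the rest, including candidates rejected on review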;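 also: compounds tested at 5 µM in the well; cells exposed to compound for 24 hours before fixing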
FPRL1 binder – binds the human formylpeptide receptor-like-1 FPRL1 | inhibition, %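 (tested at 6.7 µM)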 | FPRL1-expressing cells, fluorescent ligand binding inhibition, flow cytometry | 24,000 compounds, 0.3% hits | P25090;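 also: 0% = buffer alone and 100% = receptor blocker peptide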
Target sequence (P25090 whole entry, looked up): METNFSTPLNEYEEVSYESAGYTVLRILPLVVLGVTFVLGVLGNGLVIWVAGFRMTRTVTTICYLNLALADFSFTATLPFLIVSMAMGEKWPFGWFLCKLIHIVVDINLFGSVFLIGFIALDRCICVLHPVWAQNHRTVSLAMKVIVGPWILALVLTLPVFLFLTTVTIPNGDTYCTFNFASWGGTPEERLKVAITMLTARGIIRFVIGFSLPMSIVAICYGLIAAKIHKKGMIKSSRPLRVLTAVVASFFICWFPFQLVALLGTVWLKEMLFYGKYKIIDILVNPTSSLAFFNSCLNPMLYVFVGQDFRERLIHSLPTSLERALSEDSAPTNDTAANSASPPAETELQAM
FPR binder – binds the human formylpeptide receptor FPR. P21462. FPR-expressing cells, fluorescent ligand binding, flow cytometry. inhibition, %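 (tested at 6.7 µM)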. 24,000 compounds, 0.74% hits. AID 440;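 also: 0% = buffer wells and 100% = receptor blocker peptide wells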
Target sequence (P21462 whole entry, looked up): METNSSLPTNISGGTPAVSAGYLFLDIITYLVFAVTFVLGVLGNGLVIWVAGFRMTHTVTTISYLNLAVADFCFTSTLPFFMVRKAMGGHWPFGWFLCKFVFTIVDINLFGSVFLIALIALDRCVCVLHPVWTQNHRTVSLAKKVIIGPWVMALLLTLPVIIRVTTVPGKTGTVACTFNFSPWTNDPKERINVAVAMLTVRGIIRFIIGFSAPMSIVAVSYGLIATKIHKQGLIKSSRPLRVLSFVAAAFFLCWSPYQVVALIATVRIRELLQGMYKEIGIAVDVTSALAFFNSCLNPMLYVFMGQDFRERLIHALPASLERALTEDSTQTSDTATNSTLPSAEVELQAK
* = called active by the depositor; i = inactive; . = not tested or not shown.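 The calls were made as follows, unless noted: active = mean above 30%; inconclusive = self-fluorescent; inactive = the rest.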 Only part of the results is shown; rates above refer to the full screens.

compound | VCAM-1 imaging | VCAM-1 down | VCAM-1 augmentation | FPRL1 binder | FPR binder
COc1ccc(NC(=O)NCCN2C(=O)C3C4C=CC(C4)C3C2=O)cc1 (configuration not stated) | i | i | i | -2 | -1
CN1CCN(CCCNC(=O)Cn2ncc3c4ccccc4n(C)c3c2=O)CC1 | i | i | i | 11 | 4
C=CCNC(=O)CSc1ccc(Cl)cc1 | i | i | i | 4 | 6
CCN1CCCC1CNC(=O)c1cc2c(=O)n(C)c3ccccc3c2n1C (configuration not stated) | i | i | i | 3 | 11
COc1ccccc1-n1c(N)c(C(N)=O)sc1=S | . | . | . | -1 | 3
COc1ccc(C2Oc3ccccc3N2C(C)=O)cc1 (configuration not stated) | . | . | . | 2 | 5
COc1ccc(NC(=O)N2CCC(c3ccccc3)C2)c(OC)c1 (configuration not stated) | . | . | . | 4 | -1
N#CCC(=O)N1CCn2c1nc1ccccc12 | i | i | i | -3 | -3
O=C(NCCN1CCOCC1)c1noc2c1CCc1ccccc1-2 | . | . | . | 0 | -3
Cc1ccc(N)cc1CN1CCCC1=O | . | . | . | -9 | 4
CC1CCN(c2nnc(N)s2)CC1 | . | . | . | -2 | -6
CC(=O)Nc1ccc2nc(-c3cccnc3)[nH]c2c1 | i | i | i | 4 | -6
O=C(CCCn1c(=O)[nH]c2cc(Cl)ccc2c1=O)NCCCN1CCCC1 | . | . | . | -2 | -7
Cc1ccc(SCc2[nH]nc3c2C(c2ccc(C)o2)C(C#N)=C(N)O3)cc1 (configuration not stated) | i | i | i | -3 | 3
COCCCNC(=O)CCn1c(=O)c2ccccc2n(CC(=O)Nc2cc(Cl)ccc2C)c1=O | . | . | . | 2 | -4
COc1ccc(NC(=O)Cn2nnc(C(=O)NCc3ccccc3)c2N)cc1Cl | . | . | . | -5 | 1
NC(=O)c1c(-c2ccccc2)oc2ccc(O)cc12 | i | i | i | -4 | -11
COc1ccccc1S(=O)(=O)Cc1ccc(C(=O)N2CCN(c3ccccn3)CC2)o1 | i | i | i | -3 | -4
CCn1cc(C(=O)Nc2ccc(NC(=O)c3ccco3)cc2)c(=O)c2ccc(C)nc21 | . | . | . | -5 | 2
CC(C)CC(c1nnnn1C(C)(C)C)N1CCN(C2CCCC2)CC1 (configuration not stated) | i | i | i | -3 | -8
O=C(c1ccc(-c2ccccc2)cc1)N1CCN(c2ncccn2)CC1 | i | i | i | -11 | -2
CCCc1ccc(C(C)NC(=O)c2cnccn2)cc1 (configuration not stated) | i | i | i | 7 | 8
Cn1c(=O)oc2cc(S(=O)(=O)N3CCCC3)ccc21 | . | . | . | 3 | -4
Cn1c(=O)oc2cc(S(=O)(=O)NCCC(=O)NC3CCCc4ccccc43)ccc21 (configuration not stated) | . | . | . | -3 | -2
COc1ccc(-c2noc(-c3ccccc3C(=O)Nc3cccnc3)n2)cc1 | i | i | i | -3 | -4
c1csc(-c2nc3nc4ccccc4nc3n2Cc2ccc3c(c2)OCO3)c1 | i | i | i | -2 | 0
COC(=O)c1ccccc1Nc1cc(C)nc2nc(C)nn12 | . | . | . | 7 | 10
COc1cc(OC)c2c(c1)OC(c1ccc(OC)c(OC)c1)C(O)C2=O (configuration not stated) | i | i | i | -1 | -3
COc1ccc(NS(=O)(=O)c2ccc(OC)c3ccccc23)cn1 | . | . | . | -2 | 2
COc1ccc(C2c3c(-c4ccccc4O)n[nH]c3C(=O)N2CCc2ccc(OC)c(OC)c2)cc1 (configuration not stated) | i | i | i | 2 | 14
O=C(COc1cccc(Oc2ccccc2)c1)Nc1ncccn1 | i | i | i | 1 | -1
Cc1nc(CNS(=O)(=O)c2ccc(Oc3ccccc3)cc2)cs1 | . | . | . | -1 | 3
COc1ccc(N(CC(=O)N2c3ccccc3CC2C)S(=O)(=O)c2c(C)nn(C)c2C)cc1 (configuration not stated) | . | . | . | -3 | 5
O=C(NCC1CCCO1)C1CC(=O)N(C2CCCCCC2)C1 (configuration not stated) | . | . | . | -2 | -1
COc1cccc(CNn2c(-c3cccc(C)c3)nc3ccccc3c2=O)c1O | . | . | . | -5 | -4
Cc1cc(=O)n2[nH]c(-c3ccccc3Cl)cc2n1 | . | . | . | 7 | 0
CCOc1ccc(-c2nnc(N)s2)cc1 | i | i | i | -4 | 8
COc1ccccc1C(=O)N1CCN(CCc2ccccc2)CC1 | i | i | i | 0 | -6
COC(=O)C(CC(C)C)NC(=O)CSc1nc(-c2ccccc2)c(C#N)c(=O)[nH]1 (configuration not stated) | i | i | i | -3 | 3
Cc1ccc(S(=O)(=O)N2CCCC(c3nnc4n3-c3ccccc3SC4)C2)cc1 (configuration not stated) | i | 76 | i | -1 | -2
O=C(CCCn1c(=S)[nH]c2cc3c(cc2c1=O)OCO3)N1CCc2ccccc2C1 | . | . | . | 0 | 2
CC(C)OCCCNC(=O)CN1CCN(Cc2ccccc2Cl)C1=O | . | . | . | -5 | -2
O=C(CSc1nnc(-c2ccc(Cl)s2)o1)N1CCCc2ccccc21 | . | . | . | -2 | -4
O=C(CCCCn1c(=O)[nH]c2ccccc2c1=O)NC1CCN(Cc2ccccc2)CC1 | . | . | . | 3 | 2
Cc1ccccc1-n1nc2c(c1NC(=O)c1c(-c3ccccc3Cl)noc1C)CS(=O)(=O)C2 | . | . | . | -6 | 3
Cc1ccc(NC(=O)COc2nc(C)cs2)cc1 | i | i | i | -1 | -2
NC(Cc1ccc(Oc2ccc(O)cc2)cc1)C(=O)O (configuration not stated) | i | i | i | -3 | -8
O=C(c1ccco1)N1CCN=C1SCc1ccccc1Cl | . | . | . | -1 | -5
O=C(COc1ncnc2ccccc12)NCc1ccc2c(c1)OCO2 | i | i | i | 2 | 5
CCC(=O)N1CCCc2cc(S(=O)(=O)N3CCN(c4ncccn4)CC3)ccc21 | . | . | . | -5 | 1
COc1ccc(N2CCN(C(=O)C3CCC(Cn4c(=S)[nH]c5ccccc5c4=O)CC3)CC2)cc1 (configuration not stated) | . | . | . | -3 | -3
Cc1cc(C(=O)Cn2cncn2)c(C)n1CCc1ccc(F)cc1 | i | i | i | -5 | -3
CCCCNC(=O)CCCCCn1c(=O)[nH]c2cc(OC)c(OC)cc2c1=O | . | . | . | 8 | 5
CCOCCc1c(O)nc(SCC(=O)NCc2ccco2)[nH]c1=O | . | . | . | 0 | 3
CCOC(=O)N1CCC(N2C(=O)c3ccccc3C2=O)CC1 | . | . | . | -4 | -1
CCN(CC)S(=O)(=O)c1ccc(NC(=O)c2cccc3c2C(=O)N(CCOC)C3)cc1 | i | i | i | -4 | 2
CCOC(=O)CSc1nc2c([nH]c3ccccc32)c(=O)n1C | . | . | . | 7 | -4
COc1cccc(CN2C(=O)CN(C3CCCCC3)C(=O)C2c2ccc(F)cc2)c1 (configuration not stated) | . | . | . | -12 | 2
Cc1cccc2cc(C#N)c(SCCN3CCCCC3)nc12 | i | i | i | -3 | 2
CCOC(=O)N1CCC(Nc2c(NCCCN3CCN(c4ccc(OC)cc4)CC3)c(=O)c2=O)CC1 | . | . | . | 3 | 4

Reprinted at random: four entries already listed.
compound | VCAM-1 imaging | VCAM-1 down | VCAM-1 augmentation | FPRL1 binder | FPR binder
COc1ccc(N(CC(=O)N2c3ccccc3CC2C)S(=O)(=O)c2c(C)nn(C)c2C)cc1 (configuration not stated) | . | . | . | -3 | 5
CC(C)OCCCNC(=O)CN1CCN(Cc2ccccc2Cl)C1=O | . | . | . | -5 | -2
CCOc1ccc(-c2nnc(N)s2)cc1 | i | i | i | -4 | 8
CCC(=O)N1CCCc2cc(S(=O)(=O)N3CCN(c4ncccn4)CC3)ccc21 | . | . | . | -5 | 1

Continued.
compound | VCAM-1 imaging | VCAM-1 down | VCAM-1 augmentation | FPRL1 binder | FPR binder
Fc1ccc(C2C3=C(Nc4ncnn42)c2ccccc2OC3c2ccncc2)cc1 (configuration not stated) | i | i | i | -8 | 4
COc1cccc(C2C(C(=O)c3sc(C)nc3C)=C(O)C(=O)N2CCN2CCOCC2)c1 (configuration not stated) | . | . | . | -2 | 1
COc1ccc2cc3cc(C(=O)N4CCN(Cc5ccc6c(c5)OCO6)CC4)oc3nc2c1 | . | . | . | -9 | 1
CCOC1(C(F)(F)F)NC(=O)N(Cc2ccc(OC)cc2)C1=O (configuration not stated) | . | . | . | -1 | 2
CCCCOc1ccccc1C1CC(=O)NC2=C1C(=O)CCC2 (configuration not stated) | . | . | . | 11 | 4
O=C(COc1ccccc1O)Nc1ccccc1Cl | . | . | . | -2 | -1
COc1ccccc1C(=O)Nc1ccc(N2CCN(Cc3ccccc3)CC2)cc1 | . | . | . | 2 | -5
CC1(C(=O)NC2CCCCCCC2)CCC(=O)N1CCN1CCOCC1 (configuration not stated) | . | . | . | 0 | 1
COc1ccc(CC(=O)NC2CCN(CC(=O)Nc3ccc4c(c3)OCCO4)CC2)cc1OC | i | i | i | -6 | -4
CSc1ccccc1NC(=O)c1cc(CC(C)C)on1 | . | . | . | 4 | -1
Cc1ccc(NC2c3ncccc3C(=O)N2c2ccccc2C)cc1C (configuration not stated) | . | . | . | -2 | -4
O=C(NCC1CCCO1)c1coc2nc3ccccc3nc12 (configuration not stated) | . | . | . | 3 | -1
CCCCCn1c(CN2CCN(C)CC2)nc2c1c(=O)n(C)c(=O)n2C | i | i | i | 12 | -3
CC1CCN(CCCNC(=O)c2ccc(CS(=O)(=O)Cc3ccccc3F)o2)CC1 | . | . | . | 5 | 0
Cc1cc(C(F)(F)F)nn1Cc1ccc(C(=O)NCc2ccco2)o1 | i | i | i | 1 | -4
Cc1cc(Nc2cccc(F)c2)n2ncnc2n1 | . | . | . | -3 | -4
O=C1OC(c2ccccc2)=C/C1=C/N1CCCCC1 | . | . | . | -8 | 0
Cc1ccc(S(=O)(=O)N2CCN(C(=O)CSc3nc4ccccc4o3)C2)cc1 | . | . | . | -2 | 5
CCc1c(C)nc(SCC(=O)Nc2ccc(Br)cc2)[nH]c1=O | . | . | . | 1 | 9
C=CCn1c(COc2ccc(CC)cc2)nnc1SC/C(O)=C(\C#N)c1nc2ccccc2[nH]1 | i | i | i | -15 | 6
CCOC(=O)Cc1csc(NC(=O)c2cccc(OC)c2)n1 | i | i | i | -4 | -6
Cc1ccc(C(C(=O)NC2CCCC2)N2CCCCC2)cc1 (configuration not stated) | . | . | . | 11 | -2
CCS(=O)(=O)N1CCCC(C(=O)NCc2cccnc2)C1 (configuration not stated) | . | . | . | 2 | 10
CCOc1cc(C(=O)N(C)Cc2cc3cc(OC)ccc3[nH]c2=O)cc(OCC)c1OCC | i | i | i | -2 | -5
CCc1ccccc1NC(=O)CN1C(=O)C2CCCN2c2ncc(Cl)cc21 (configuration not stated) | . | . | . | -3 | 7
CC(NC(=O)Cn1cc2c(n1)CCCCC2)c1ccccc1 (configuration not stated) | . | . | . | 11 | 7
COc1ccc(-c2cc(C(=O)NC3CCCC3)no2)cc1OC | . | . | . | 0 | -1
O=C(CSc1nc2[nH]ncc2c(=O)n1-c1ccccc1)N1CCCc2ccccc21 | . | . | . | 4 | 4
O=C(NC1=NCCS1)NC12CC3CC(CC(C3)C1)C2 | i | i | i | -2 | -7
Cc1cccc(C)c1NC(=O)CS(=O)CC(=O)NC1CCCc2ccccc21 (configuration not stated) | i | i | i | -5 | -2
CC(=O)NC(CCS(C)(=O)=O)C(=O)Nc1cccc(C)c1C (configuration not stated) | i | i | i | 2 | -10
CC(=O)c1cccc(N=C2C(=O)Nc3ccccc32)c1 | . | . | . | -2 | 0
Cn1c(C(=O)N2CCCC(C(=O)NCCCc3ccccc3)C2)cc2sccc21 (configuration not stated) | i | i | i | -7 | 1
CCCS(=O)(=O)N1CCCC(C(=O)NCCN2CCCCC2C)C1 (configuration not stated) | . | . | . | 3 | 0
CC1CC(NC(=O)c2cnc3n(c2=O)CCS3)CC(C)(C)C1 (configuration not stated) | i | i | i | 2 | -8
CCOC(=O)N1CCN(C(=O)c2nn(-c3ccc(C)cc3)c(=O)c3c2c2ccccc2n3C)CC1 | . | . | . | -2 | -1
Cc1ccc(Cn2ccc(NC(=O)c3noc4c3CCCCC4)n2)cc1 | . | . | . | 2 | -2

In another format: 4 of the compounds above.
Each structure is followed by: VCAM-1 imaging | VCAM-1 down | VCAM-1 augmentation | FPRL1 binder | FPR binder
CC(=O)c1cccc(N=C2C(=O)Nc3ccccc32)c1
    . | . | . | -2 | 0
Cn1c(C(=O)N2CCCC(C(=O)NCCCc3ccccc3)C2)cc2sccc21 (configuration not stated)
    i | i | i | -7 | 1
CCCS(=O)(=O)N1CCCC(C(=O)NCCN2CCCCC2C)C1 (configuration not stated)
    . | . | . | 3 | 0
CC1CC(NC(=O)c2cnc3n(c2=O)CCS3)CC(C)(C)C1 (configuration not stated)
    i | i | i | 2 | -8
